High-throughput results from PubChem BioAssay.
ALR H2O2 inh: inhibitors of human ALR sulfhydryl oxidase, primary screen, biochemical, H2O2 detection, HRP-luminol luminescence, single point; FAD-linked sulfhydryl oxidase ALR (Homo sapiens), P55789; purified ALR, DTT oxidation; inhibition, % (no concentration beside the values); 290,000 compounds, 3.8% hits; AID 485317, 2010;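 active means mean and each replicate at 75% or more; inconclusive means only one of the two met; inactive means neither met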;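 further: stock transfer was 7.5 nL into about 7.5 µL; 0% = neutral wells and 100% = wells with inactivated enzyme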
FGF22 binding: binders of human FGF22 protein, primary screen, FGF22 synaptogenesis inhibitor project, biophysical, thermal shift, single point. calls only at 9.99 µM. 340,000 compounds, 1.5% hits. recombinant FGF22 thermal shift, SYPRO orange fluorescence; percent of sucrose octasulfate shift, DMSO zero. AID 651658, 2012. Fibroblast growth factor 22 (Homo sapiens), Q9HCT0;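 active means melting point raised past a set limit in the mean and every replicate; inconclusive means no clear call; three in four hits are not shown here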
Target sequence (Q9HCT0 whole entry, looked up): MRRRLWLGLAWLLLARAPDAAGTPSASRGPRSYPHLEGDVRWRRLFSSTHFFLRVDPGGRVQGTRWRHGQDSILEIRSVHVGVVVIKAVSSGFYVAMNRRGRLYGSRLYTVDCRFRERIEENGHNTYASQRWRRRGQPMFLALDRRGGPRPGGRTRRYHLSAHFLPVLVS
UCH37 inh: inhibitors of human UCH37 deubiquitinase, primary screen, biochemical, Ub-AMC cleavage, fluorescence. inhibition, % (test concentration not listed). Ubiquitin carboxyl-terminal hydrolase isozyme L5 (Homo sapiens), Q9Y5K5. 330,000 compounds, 0.33% hits. AID 588478, 2011. purified proteasome/UCH37;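 active means mean of two replicates above 20%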;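 further: 0% = compound-free wells with enzyme and 100% = wells lacking proteasome; stock transfer was 100 nL into about 20 µL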
Target sequence (Q9Y5K5 whole entry, looked up): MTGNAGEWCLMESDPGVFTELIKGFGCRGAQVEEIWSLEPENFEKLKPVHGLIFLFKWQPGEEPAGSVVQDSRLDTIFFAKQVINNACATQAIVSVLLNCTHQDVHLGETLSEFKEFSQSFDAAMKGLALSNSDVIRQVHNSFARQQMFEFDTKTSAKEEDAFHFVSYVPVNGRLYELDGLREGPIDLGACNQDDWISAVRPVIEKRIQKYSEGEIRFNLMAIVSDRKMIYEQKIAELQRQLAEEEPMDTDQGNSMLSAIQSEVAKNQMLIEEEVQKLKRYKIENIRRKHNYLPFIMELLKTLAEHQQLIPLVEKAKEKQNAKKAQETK
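system = Proteasome-associated human UCH37 deubiquitinase | amount = 0.15 nM proteasome as dispensed | medium = pH 7.4 Tris-HCl (50 mM) with ovalbumin, ATP-MgCl2, DTT | incubation = 30 min preincubation with enzyme, 25 min cleavage at room temperature | detection = AMC fluorescence 355/460 nm | read-out basis = percent inhibition | controls = no-proteasome and no-compound wells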
Ecoli growth: E. coli growth inhibition, primary screen, OD600. OD600 absorbance (no concentration beside the values). 330,000 compounds, 0.21% hits. Escherichia coli growth, 23 h; active compounds read low;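 active means OD600 absorbance below the run mean of sample wells minus 3.6 SD, in any replicate, cut at about 0.56 in these data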;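 further: stock transfer was 300 nL into about 60 µL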
Beta2AR agonist: beta2AR agonists driving receptor internalization, primary screen, cell-based, FAP fluorogen, flow cytometry. Beta-2 adrenergic receptor (Homo sapiens), P07550. response, % (test concentration not listed). 340,000 compounds, 0.43% hits. Am2.2-beta2AR cells; reference of the scale not given here. AID 504454, 2011;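 active means response above a set limit, near 3 SD of response in nonfluorescent compounds, cut at about 42% in these data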;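 further: stock transfer was 100 nL into about 11 µL; a reference agonist was the positive control; negative values mostly stem from fluorescent compounds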
HNF4A DNA FP: change in binding of human HNF4A to DNA, primary screen, biochemical, fluorescence polarization, FITC-DNA; activity change, % at 10 µM; AID 1224865, 2016; Hepatocyte nuclear factor 4-alpha (Homo sapiens), P41235; 1 h; 360,000 compounds, 0.3% hits; in the data active means activity change above about 30%, passing the limit was not always enough;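 further: controls were the assay level and a saturating level of protein; the project sought stronger binding though the title names inhibitors; some compounds called inactive have numbers as strong as hits; positive values seem to mean higher polarization but the record does not say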
Target sequence (P41235 whole entry, looked up): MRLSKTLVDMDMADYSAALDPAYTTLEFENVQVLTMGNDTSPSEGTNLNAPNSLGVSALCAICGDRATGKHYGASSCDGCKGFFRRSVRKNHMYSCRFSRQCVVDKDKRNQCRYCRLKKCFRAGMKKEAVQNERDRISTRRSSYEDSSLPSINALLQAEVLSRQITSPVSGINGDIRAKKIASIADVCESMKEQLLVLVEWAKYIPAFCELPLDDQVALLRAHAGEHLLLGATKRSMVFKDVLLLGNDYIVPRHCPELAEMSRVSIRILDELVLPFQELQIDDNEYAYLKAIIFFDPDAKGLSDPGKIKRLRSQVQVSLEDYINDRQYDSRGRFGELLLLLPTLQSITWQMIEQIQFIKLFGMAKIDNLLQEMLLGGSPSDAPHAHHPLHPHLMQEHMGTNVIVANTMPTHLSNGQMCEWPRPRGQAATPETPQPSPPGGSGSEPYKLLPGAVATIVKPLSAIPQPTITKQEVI
Ecoli rRNA inh: reduced GFP signal of wild-type E. coli, primary screen, bacterial rRNA inhibitor project, GFP/RFP fluorescence, OD600, single point; E. coli WT GFP vs humanized-ribosome RFP mutants, 24 h; active compounds read low; DMSO median 0, no signal -100; GFP signal change (wild-type ribosome), % (no concentration beside the values); 350,000 compounds, 1.6% hits; AID 720706, 2013;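 active means significant combined selectivity score with lowered wild-type GFP, culture density cut under 30%, mutant RFP and density less affected; inactive means any of these conditions unmet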; further: one replicate is shown; some compounds called inactive have numbers as strong as hits
Ecoli rRNA inh OD600: recorded beside Ecoli rRNA inh, whose call it bears; OD600 change, %; measured here: OD600 growth;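 optical density of the mix in the first replicate; 0 = DMSO median and -100 = no signal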
Ecoli rRNA inh RFP: recorded beside Ecoli rRNA inh, whose call it bears; RFP signal change, %; measured here: RFP humanized mutant strains;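 first replicate; 0 = DMSO median and -100 = no signal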
* marks the source's active call; other numbers are inactive results; i = inactive; ? = inconclusive; nt = no result given. A portion of the library, so the mix of outcomes need not match the whole.

#	structure	Ecoli rRNA inh RFP	Beta2AR agonist	Ecoli rRNA inh OD600	HNF4A DNA FP	ALR H2O2 inh	Ecoli growth	FGF22 binding	UCH37 inh	Ecoli rRNA inh
1	C(=N\c1nc2ccccc2[nH]1)/c1cccs1	-1.6	2	2	-1.9	3	nt	i	nt	18
2	CN(C)c1ccnc2sc3c(NCC(O)CO)ncnc3c12 (stereo not drawn)	-1.2	-1	7	0.2	-18	0.68	i	-0.3	17
3	CN(C)N=Nc1ccc(S(=O)(=O)NC(Cc2ccccc2)C(=O)O)cc1 (stereo not drawn)	0.1	3	-6	1.8	0	nt	i	nt	7
4	O=C(Nc1ccc(O)c(-c2nc3ccccc3o2)c1)C1(c2ccccc2)CCCC1	-4.1	7	-6	-8.8	-14	0.71	i	0.2	7
5	O=C(O)c1ccc(/C=N/NC(=O)c2cc(-c3ccc4c5c(cccc35)CC4)n[nH]2)cc1	nt	-9	nt	-2.0	-7	nt	i	nt	nt
6	O=C1Nc2ccccc2-n2nnnc2C1N1CCN(c2ccc(C(F)(F)F)cn2)CC1 (stereo not drawn)	-0.7	nt	8	-0.5	nt	nt	i	nt	9
7	COc1ccc(C2=NCCn3c2c2ccc(C(F)(F)F)cc2[n+]3[O-])cc1	-2.5	-7	-7	2.1	-19	0.63	i	3.0	0
8	CC(=O)c1c(C)[nH]c(C(=O)OCC(=O)Nc2ccc([N+](=O)[O-])cc2Cl)c1C	nt	-15	nt	-1.2	nt	0.72	i	6.4	nt
9	COC(=O)c1cc(OC)c(OC)cc1N	nt	-2	nt	2.2	10	0.71	nt	-3.8	nt
10	CCc1ccccc1NC(=O)Cn1nc(C(F)(F)F)cc1C1CC1	-6.0	6	6	2.3	-3	0.71	i	0.3	8
11	Clc1ccc(C2=CSC3=NCCN23)cc1Cl	nt	-1	nt	0.4	97*	0.75	nt	5.1	nt
12	O=C(CSCc1c(F)cccc1F)Nc1ccccc1	4.4	-2	16	-0.3	-3	0.69	i	1.0	12
13	Cc1cccc(S(=O)(=O)NC(=O)C2(C)CCN2C(=O)Cc2cccs2)c1 (stereo not drawn)	-11	nt	11	-4.3	nt	nt	i	nt	7
14	O=C(NC1CCCC1)C(C1CC1)n1c(-c2ccncc2)nc2ccccc21 (stereo not drawn)	-2.4	nt	3	1.3	nt	nt	i	nt	3
15	O=C(CSc1ccccc1)Nc1ccccc1N1CCOCC1	nt	-5	nt	-0.3	-1	0.72	nt	-1.3	nt
16	CCC1CCC/C1=N\NC(=O)c1ccccc1Cl (stereo not drawn)	0.2	-2	7	-4.7	-2	nt	i	nt	17
17	O=C(c1cc(Br)c(Br)s1)N1CCN(c2ccccn2)CC1	1.1	-5	-64	-2.7	-12	0.67	i	5.7	-42
18	Cc1cc(C(=O)CN2C(=O)C(=O)N(CCC3=CCCCC3)C2=O)c(C)n1C	-2.0	-7	-32	-4.7	5	0.69	i	4.5	-18
19	CCOc1ccc(NC(=O)CSc2ccccc2N)cc1	0.9	7	9	-1.7	nt	0.65	i	2.3	19
20	O=C(Nc1ccc(Cl)cc1)c1csc(COCCO)n1	-8.7	nt	-11	2.3	nt	nt	i	nt	-2
21	CCCCN(C)CCCNC(=O)c1cc(Nc2ccc(OC)c(OC)c2)nc2ccccc12	0.2	0	6	1.7	14	0.7	i	5.7	-6
22	CC(=O)c1ccc(OCc2cc(C(=O)N(C)Cc3nc4c(C)cccc4[nH]3)no2)cc1	-0.3	-4	-19	-1.2	-10	0.72	i	0.0	-8
23	O=C(/C=C/c1cccnc1)c1ccc([N+](=O)[O-])cc1	7.2	-5	14	0.5	-9	0.64	i	8.5	36
24	O=C(NC(=O)c1csnn1)Nc1ccccc1Cl	-1.6	-18	5	2.9	-17	0.7	i	-1.2	9
25	Cc1ccc(C)c(N(C)S(=O)(=O)c2cccc3nsnc23)c1	nt	3	nt	3.1	nt	0.69	nt	3.6	nt
26	Cc1ccc(C(=O)N2CCN(CCNC(=O)C(=O)NCc3ccc(Cl)cc3)CC2)cc1	-1.7	-2	14	1.1	-2	0.66	i	-0.2	15
27	O=C(NC(=S)NCCC1=CCCCC1)c1cncc(Br)c1	nt	-12	nt	4.0	18	0.7	nt	0.6	nt
28	COC(=O)CC1C(=O)NCCN1C(=O)CSc1nc2ccccc2o1 (stereo not drawn)	-5.9	-3	8	0.2	nt	0.71	i	0.4	5
29	CCC(c1nc2ccccc2[nH]1)n1c(=O)c(-c2ccccc2)nc2ccccc21 (stereo not drawn)	-0.9	nt	-14	11	nt	nt	i	nt	-16
30	N#C/C(C(=O)Oc1ccccc1)=C1/Nc2ccccc2-c2ccccc21	nt	-10	nt	2.9	nt	0.73	nt	-123	nt
31	COCCn1c(-c2cc(OC)c(OC)c(OC)c2)nc2oc3ccccc3c(=O)c2c1=O	nt	-4	nt	1.4	-3	0.67	nt	6.1	nt
32	CCCC(C(=O)NC(C)(C)C)N(C(=O)c1snc(C(N)=O)c1N)c1ccc2c(c1)OCCO2 (stereo not drawn)	5.4	-10	15	2.5	5	0.69	nt	-23	27
33	COC(=O)c1c(NC(=O)COC(=O)Cn2cnc3ccccc32)sc(C)c1C	nt	2	nt	-2.2	-11	0.72	nt	-0.7	nt
34	O=C(COC(=O)c1ccccc1Cl)NC1CCCCCCC1	0.9	0	-4	2.2	nt	0.68	i	2.5	-1
35	Cc1cc(OCC(=O)Nc2ccccn2)c2c(C)cc(=O)oc2c1	3.1	-3	11	3.6	-4	0.69	i	-18	25
36	COc1ccc(-n2c(COc3ccccc3)nnc2SCc2ccc(C#N)cc2)cc1	nt	-11	nt	-2.9	-42	0.68	nt	2.7	nt
37	N#CC1(Cc2ccc([N+](=O)[O-])cc2)c2ccccc2C=CN1C(=O)c1ccccc1 (stereo not drawn)	nt	10	nt	-2.7	2	0.73	nt	2.2	nt
38	CSc1ccccc1NC(=O)CSc1nnnn1-c1ccccc1SC	nt	-1	nt	2.2	0	0.71	nt	-0.9	nt
39	COc1ccccc1NS(=O)(=O)c1ccc(N/N=C(\C)C(C)C)c([N+](=O)[O-])c1	nt	-13	nt	2.6	-1	nt	nt	nt	nt
40	COc1cc(C2N(C)C(=O)c3ccccc3N2C)ccc1O (stereo not drawn)	8.4	-4	15	-0.9	nt	0.69	i	i	11
41	Cc1ccccc1N(CC(=O)NC(C)(C)C)C(=O)CS(=O)CC(=O)Nc1ccc2c(c1)OCO2 (stereo not drawn)	2.2	3	12	0.6	0	0.64	i	0.8	7
42	Cc1ccc(C(=O)Nc2nc(-c3ccc([N+](=O)[O-])cc3)cs2)o1	13	-3	-7	-3.5	98*	0.7	i	1.0	-11
43	Cc1occc1C(=O)NNC(=O)CN1C(=O)NC2(CCCCC2)C1=O	-3.0	-2	7	4.6	nt	0.67	i	2.1	2
44	CCCCn1c(C(C)NC(=O)COC)nc2ccccc21 (stereo not drawn)	nt	3	nt	1.8	nt	0.69	nt	0.4	nt
45	CN1CCN(C2CCN(c3ccc(Nc4nnc(Cl)c(Nc5ccccc5S(C)(=O)=O)n4)c(OC(CF)CF)c3)CC2)CC1	-2.5	21	8	2.5	38	0.7	i	1.2	-2
46	COc1ccc(NC(=O)CNS(=O)(=O)c2cccs2)cc1	nt	-1	nt	4.2	nt	0.76	nt	2.6	nt
47	Cc1nc(NC(=O)CN(C)S(=O)(=O)c2ccc(Cl)cc2)sc1C	5.0	1	-24	3.0	-5	0.68	i	0.9	-21
48	COc1ccc2nc(SCC(=O)C(C)(C)C)[nH]c2c1	1.1	5	1	-0.9	nt	0.68	i	1.3	-4
49	O=C(COC(=O)c1ccccc1SCC(=O)N1CCCC1)NC1CCCCC1	3.9	-11	12	2.9	1	0.7	i	0.5	9
50	COCC(C)NCc1ccc(C)cc1C (stereo not drawn)	nt	-5	nt	2.2	-9	0.75	nt	0.8	nt
51	O=C(NCCCNC1CCCCC1)c1ccc(/C=N/O)nc1	nt	0	nt	-2.5	2	nt	nt	nt	nt
52	COC(=O)c1sc(C(C)(C)C)cc1CS(=O)(=O)c1ccccn1	-0.2	13	-6	0.1	-1	0.68	i	-2.4	-14
53	CCC(=O)N1CCN(C(=O)CC)C1c1ccccc1	nt	-15	nt	-2.0	-1	0.72	nt	-1.7	nt
54	Cc1cc(CN(C)C(=O)c2ccc(OC3CCN(Cc4ccccn4)CC3)cc2)on1	3.6	-25	10	5.5	-3	0.68	i	5.4	9
55	Cn1c(N)c(C(=O)CSc2ccccn2)c(=O)n(C)c1=O	nt	-6	nt	2.4	0	0.67	nt	2.8	nt
56	Cc1cc2c(ncn2Cc2ccccc2)c(N)c1C	0.6	14	-23	1.5	93*	0.64	i	1.5	-20
57	CC(=O)N/C(=C/c1ccc(OC(F)F)cc1)C(=O)O	nt	0	nt	-5.9	0	0.68	nt	5.1	nt
58	COc1ccccc1C(=O)NNC(=O)C(=O)NC(C)(C)C	-2.1	-2	-3	1.6	-1	0.66	i	3.0	-11
59	S=C(NCc1ccccc1)NC1CCCc2ccccc21 (stereo not drawn)	-11	-7	-73	-2.5	-10	0.64	i	2.4	-50
60	CCOC(=O)c1cnc(-n2nc(C)cc2C)nc1-n1nc(C)cc1C	nt	-3	nt	1.6	-1	0.69	nt	0.4	nt

Further entries
#	structure	Ecoli rRNA inh RFP	Beta2AR agonist	Ecoli rRNA inh OD600	HNF4A DNA FP	ALR H2O2 inh	Ecoli growth	FGF22 binding	UCH37 inh	Ecoli rRNA inh
61	CCOc1ccccc1C(=O)OCC(=O)Nc1cccc(S(=O)(=O)NC2=NCCCCC2)c1	nt	16	nt	0.0	nt	nt	i	nt	nt
62	FC(F)(F)c1nnc2sc(-c3ccccn3)nn12	nt	2	nt	0.9	-4	0.71	nt	-0.5	nt
63	Cc1cc(Cl)cc(C)c1OCC(=O)O	nt	-8	nt	4.8	0	0.75	nt	1.4	nt
64	NC(=O)c1nsc(C(=O)N(CC(=O)NCc2ccc3c(c2)OCO3)C2CCCC2)c1N	nt	2	nt	-0.5	3	0.78	nt	-11	nt
65	COc1ccc(NC(=O)N(C)[C@H]2C[C@H]3c4[nH]c5ccc(-c6ccc7c(c6)OCO7)cc5c4CCN3C[C@H]2[C@H](C)O)cc1	18	nt	-25	-6.7	nt	nt	nt	nt	-17
66	Cc1c(C(=O)OCC(=O)NCC2CCCO2)oc2ccccc12 (stereo not drawn)	-3.5	-5	-2	1.5	-6	0.67	i	0.1	-2
67	CN1CCN(C(=O)c2ccccc2Nc2ccc(SC(F)F)cc2)CC1	-2.5	-3	-6	1.2	?	0.65	i	-1.0	-9
68	Cc1ccc(S(=O)(=O)Nc2ccc3ncccc3c2)cc1	nt	0	nt	-2.2	-3	0.66	nt	1.4	nt
69	COC/C=C/C1=CC2=CC(=O)C(C)(OC(=O)c3cnc4ccccc4n3)C(=O)C2=CN1CCOC (stereo not drawn)	6.4	2	20	0.3	-19	nt	i	nt	10
